# H5N1 CPE: MDCK cell protection from H5N1 avian flu. cytopathic effect, luminescence, 72 h; active compounds read high; no value below 0 was filed and about half of the inactive calls have no number; reference of the scale not given here. inhibition, % at 50 µM. 96,000 compounds, 0.07% hits; in the data active = inhibition above about 25%
# * = called active by the depositor; i = inactive. The list is partial (hit frequency here may not be typical).
# A first look:
SMILES,H5N1 CPE
Cc1ccc(S(=O)(=O)NCCC2(C(C)C)CCOC(C)(C)C2)cc1 (stereo unspecified),1.4
CC1CCCN(c2nc3c(c(=O)n(C)c(=O)n3C)n2CCSc2nc3ccccc3o2)C1 (stereo unspecified),1.1
O=C(c1ccco1)N1CCN(C(=O)C2CCCN(S(=O)(=O)Cc3ccccc3)C2)CC1 (stereo unspecified),1.0
CCCC(=O)N(Cc1cc2cc(C)ccc2[nH]c1=O)c1ccccc1OC,0.1
CC(=O)Nc1ccc(S(=O)(=O)N2CCN(S(=O)(=O)N3CCCCCC3)CC2)cc1,0.5
COC(=O)C(CCCCNC(=O)OCc1ccccc1)NC(=O)CN (stereo unspecified),i
COc1ccc(C(=O)COC(=O)CCN=C2NS(=O)(=O)c3ccccc32)cc1OC,i
COc1ccc(NC(=O)c2ccc3c(=O)n(Cc4ccco4)c(=S)[nH]c3c2)c(OC)c1,i
C(=N\Nc1nn[nH]n1)/c1ccccc1,0.9
CCc1cccc2c(=O)c(C(=O)NCCN3CCOCC3)c[nH]c12,0.4
CCC(=O)N1CCN(c2ccccc2NC(=O)c2ccc(OC)c(Cl)c2)CC1,i
COc1ccc(NC(=O)N2CCC(c3nc(-c4cccs4)no3)CC2)cc1,i
CCc1ccc(NC(=O)c2ccc(C3SCC(=O)N3CCc3ccccc3)cc2)cc1 (stereo unspecified),1.1
COc1ccccc1CCNC(=O)c1cnccn1,i
CCCN(CCC)S(=O)(=O)c1ccc(C(=O)N2CCC(=O)c3ccccc32)cc1,1.0
O=C(Cn1cc([N+](=O)[O-])cn1)Nc1ccccn1,0.7
CCC(=NCCc1c[nH]c2ccccc12)c1c(O)n(C)c(=O)n(C)c1=O,0.3
CC1(C(=O)O)COC(c2ccc([N+](=O)[O-])cc2)OC1 (stereo unspecified),0.1
CCN1CCN(C(=O)CN(CC)S(=O)(=O)c2ccc(Cl)cc2)CC1,i
COc1c(N)c2ccccc2[nH]c1=O,i

# The list itself (from the top)
SMILES,H5N1 CPE
Cc1ccc(S(=O)(=O)NCCC2(C(C)C)CCOC(C)(C)C2)cc1 (stereo unspecified),1.4
CC1CCCN(c2nc3c(c(=O)n(C)c(=O)n3C)n2CCSc2nc3ccccc3o2)C1 (stereo unspecified),1.1
O=C(c1ccco1)N1CCN(C(=O)C2CCCN(S(=O)(=O)Cc3ccccc3)C2)CC1 (stereo unspecified),1.0
CCCC(=O)N(Cc1cc2cc(C)ccc2[nH]c1=O)c1ccccc1OC,0.1
CC(=O)Nc1ccc(S(=O)(=O)N2CCN(S(=O)(=O)N3CCCCCC3)CC2)cc1,0.5
COC(=O)C(CCCCNC(=O)OCc1ccccc1)NC(=O)CN (stereo unspecified),i
COc1ccc(C(=O)COC(=O)CCN=C2NS(=O)(=O)c3ccccc32)cc1OC,i
COc1ccc(NC(=O)c2ccc3c(=O)n(Cc4ccco4)c(=S)[nH]c3c2)c(OC)c1,i
C(=N\Nc1nn[nH]n1)/c1ccccc1,0.9
CCc1cccc2c(=O)c(C(=O)NCCN3CCOCC3)c[nH]c12,0.4
CCC(=O)N1CCN(c2ccccc2NC(=O)c2ccc(OC)c(Cl)c2)CC1,i
COc1ccc(NC(=O)N2CCC(c3nc(-c4cccs4)no3)CC2)cc1,i
CCc1ccc(NC(=O)c2ccc(C3SCC(=O)N3CCc3ccccc3)cc2)cc1 (stereo unspecified),1.1
COc1ccccc1CCNC(=O)c1cnccn1,i
CCCN(CCC)S(=O)(=O)c1ccc(C(=O)N2CCC(=O)c3ccccc32)cc1,1.0
O=C(Cn1cc([N+](=O)[O-])cn1)Nc1ccccn1,0.7
CCC(=NCCc1c[nH]c2ccccc12)c1c(O)n(C)c(=O)n(C)c1=O,0.3
CC1(C(=O)O)COC(c2ccc([N+](=O)[O-])cc2)OC1 (stereo unspecified),0.1
CCN1CCN(C(=O)CN(CC)S(=O)(=O)c2ccc(Cl)cc2)CC1,i
COc1c(N)c2ccccc2[nH]c1=O,i
O=C(Nc1nc(-c2ccc(S(=O)(=O)N3CCCC3)cc2)cs1)C1COc2ccccc2O1 (stereo unspecified),i
COc1cc(C(c2c(C)[nH][nH]c2=O)c2c(C)[nH][nH]c2=O)ccc1OCc1ccc([N+](=O)[O-])cc1,i
O=C(COC(=O)c1c2ccccc2cc2ccccc12)Nc1ncc(C(F)(F)F)cc1Cl,0.5
Cc1ccc(-c2ccc(=O)n(CC(=O)Nc3cccc(C(=O)N4CCN(C)CC4)c3)n2)cc1,0.5
CCN(CC)C(=O)CN(C)S(=O)(=O)c1cccc2nsnc12,1.1
CCOC(=O)c1c(NC(=O)Cn2c(C)nc3ccccc32)sc2c1CCC2,i
Cc1ccc(S(=O)(=O)NCC(=O)N2CCC(C)CC2)cc1,3.2
Cc1cc2c(cc1C)CSC(c1ccccc1OC(=O)C(C)(C)C)SC2,0.2
O=C(CSc1nnc2ccccn12)N1CCc2ccccc2C1,1.4
CCC(=O)Nc1nnc(-c2ccncc2)s1,0.1
CCOc1ccc(NC(=O)CN(C)CC(=O)Nc2cc(Cl)ccc2C#N)cc1OCC,0.2
CC1CC(C)CN(S(=O)(=O)c2cccc(C(=O)OCCN3CCCC3=O)c2)C1 (stereo unspecified),1.5
Nc1ccc(C2CCCc3nonc32)c2nonc12 (stereo unspecified),i
Cc1ccc(C(=O)NCC(=O)NCC(=O)OCC(=O)c2ccc([N+](=O)[O-])cc2)cc1,i
Cc1nc(SCC(=O)N(C)Cc2ccco2)c2c(C)c(C)sc2n1,2.1
Cc1ccc(CNC(=O)CSc2c3c(nc4cc(Cl)ccc24)CCCC3)o1,11
CCN1CCN(c2cc(C)c3cc(NC(=O)c4cnccn4)ccc3n2)CC1,1.1
Brc1ccc(CSc2ncnc3nc[nH]c23)cc1,4.2
CC(C)(C)c1ccc(C(=O)c2c[nH]c(C(=O)NCc3cccnc3)c2)cc1,3.0
Cc1ccccc1NC(=O)C1CC(=O)N(c2ccccc2F)C1 (stereo unspecified),i
COC(=O)C1CCN(C(=O)COc2ccc(Cl)cc2)CC1,0.7
Cc1c(NS(=O)(=O)c2ccccc2)c(=O)n(-c2ccccc2)n1C,i
Cc1cccc2nc(=S)n(C(=O)c3ccco3)n12,6.3
CCNCc1cc(OCC)c(OCC(=O)NCCc2ccccc2)cc1Cl,0.8
CSc1ccc(NC(=O)CC(C)=O)cc1,i
Cc1ccccc1OCC(=O)Nc1ccc(C(N)=O)cc1,i
CCCc1cc(=O)n2[nH]c(NCc3ccc(Cl)cc3Cl)nc2n1,0.2
CCCC1CCC(C(=O)Nn2cnc3ccccc3c2=O)CC1 (stereo unspecified),i
Cc1cccc(-n2c(O)c(C=NCc3cccnc3)c(=O)[nH]c2=O)c1C,i
CC(=O)Nc1ccccc1-c1nc2ccc(C(=O)N3CCN(c4ccccc4)CC3)cc2[nH]c1=O,0.2
# New compounds follow.
SMILES,H5N1 CPE
CC(C)(C)NC(=O)C(c1ccncc1)N(C(=O)CNC(=O)c1ccco1)c1ccc2c(c1)OCO2 (stereo unspecified),i
CC(C)(C)C1CCC(=NNc2ncc(C(F)(F)F)cc2Cl)CC1 (stereo unspecified),1.5
CC1=NC2(CCCc3c2no[n+]3[O-])N(O)C1(C)C (stereo unspecified),0.4
COc1ccc(S(=O)(=O)n2nc(OC(=O)c3cccs3)cc2N)cc1,1.1
Cc1ccc(CNC(=O)C2CNc3cc(C)ccc3O2)cc1 (stereo unspecified),1.8
CCOCc1cnc(C)nc1NCC(=O)c1c(C)[nH]c2ccccc12,i
Cc1c(C)[n+](=O)c(-c2cccs2)c(C)n1[O-],0.4
O=S(=O)(Nc1ccc2c(c1)OCCO2)c1cnc[nH]1,i
O=S(=O)(c1ccc2ccccc2c1)N1CCN(C2CCN(Cc3ccccc3)CC2)CC1,i
CC(=O)Nc1c(O)[nH]c2ccccc12,1.0
OCCN(Cc1ccccc1)CC1CC=CCC1 (stereo unspecified),0.0
CN1CCN(CCCNC(=O)c2cn(C3CCCCC3)c(=O)c3c2c2ccccc2n3C)CC1,i
NS(=O)(=O)c1ccc(NC(=O)CSc2nnc(Cc3cccs3)n2-c2ccccc2)cc1,3.9
CC(C)OC(=O)c1cc2ccccc2oc1=O,i
CN(C(=O)COC(=O)c1ccccc1Nc1ccccc1)C1CCS(=O)(=O)C1 (stereo unspecified),i
CCOC(=O)CCN(Cc1sccc1C)S(=O)(=O)c1ccc(F)cc1,i
COc1ccc(C(=O)N2CCN(C(=O)c3ccco3)CC2)cc1,i
Cc1cccc(NC(=S)N2CCC(N(C)CC3CCCO3)CC2)c1C (stereo unspecified),i
O=C1C(C=NCc2ccncc2)=C(O)c2ccccc21,i
COc1ccc(/C=C/C(=O)c2ccccc2)cc1COc1ccccc1F,i
COc1ccccc1-n1cnc2cc(NS(=O)(=O)c3ccc(Br)cc3)ccc21,2.1
O=C(O)C1Cc2ccccc2CN1C(=O)c1ccccc1Cl (stereo unspecified),0.5
COc1cc(-c2noc(-c3ccco3)n2)cc(OC)c1OC,4.3
Brc1ccc2ncnc(Nc3ccc(N4CCOCC4)cc3)c2c1,i
CCN(CC)S(=O)(=O)c1cccc(C(=O)N[C@H](C(=O)OCC(=O)Nc2ccccc2)C(C)C)c1,0.1
CCCn1c(SCc2ccccn2)nc2c1c(=O)n(C)c(=O)n2C,1.3
COc1ccc(S(=O)(=O)N2CCC(C(=O)N3CCc4ccccc4C3)CC2)cc1Cl,0.0
CC1CCN(C(=O)CN2C(=O)c3ccccc3S2(=O)=O)CC1,i
N#Cc1ccc(OCCN2C(=O)NC3(CCSC3)C2=O)cc1 (stereo unspecified),0.5
CC1CCN(S(=O)(=O)c2ccc3ccccc3c2)CC1,1.4
c1cc2c(cc1C1CCCN1)OCCCO2 (stereo unspecified),i
COc1ccc(N(CC(=O)NC2CCCCCC2)S(=O)(=O)c2c(C)nn(C)c2C)cc1,0.8
O=C(NCCCn1ccnc1)Nc1ccc(Cl)c(Cl)c1,i
c1ccc(-c2csc3ncnc(-n4cnc5ccccc54)c23)cc1,0.9
COC(=O)c1ccc(CSc2nc3ccccc3c(=O)n2-c2ccc(OC)c(OC)c2)o1,i
CC(C)NC(=O)CC(=O)N/N=C/c1ccccc1F,2.1
O=C(CSc1cn(CCNC(=O)c2ccc3ccccc3c2)c2ccccc12)NCc1ccco1,i
CCOCCCNC(=O)c1c(C)[nH]c(C(=O)OCC)c1C,i
COc1ccc(NC(=O)C2CCC(=O)N2)cc1 (stereo unspecified),i
COc1cccc(-n2c(Cc3cc(=O)[nH]c(=O)[nH]3)nnc2SCC(=O)N2CCCCCC2)c1,0.9
CC(=O)c1cn(CC(=O)NCc2ccc3c(c2)OCO3)c2ccccc12,0.3
c1ccc(Cc2ccc(OCCn3cncn3)cc2)cc1,0.1
CCOc1ccccc1C(=O)N1CCN(c2cccc(Cl)c2)CC1,i
CC1CCCC(NC(=O)COC(=O)c2ccc(S(=O)(=O)N3CCOCC3)cc2)C1C (stereo unspecified),i
CCC(C(=O)N1CCOCC1)n1c(C(=O)OC)cc2occc21 (stereo unspecified),0.4
CCOc1ccc(C(C)=O)cc1CN1C(=O)NC2(CCCCC2C)C1=O (stereo unspecified),i
O=C(Cc1csc(Nc2nc(=S)[nH]c3ccccc23)n1)NCc1ccccc1Cl,i
Cc1ccn2cc(CNS(=O)(=O)c3ccc(Cl)s3)nc2c1,0.2
CCC(C)(c1ccc(C(=O)OC)s1)c1ccc(C(=O)OC)s1,1.2
COC(=O)Nc1ccc(S(=O)(=O)N(C)CC(F)(F)C(F)F)cc1,i
# Additional entries:
SMILES,H5N1 CPE
CC(=O)Nc1ccc(S(=O)(=O)N2CCN(Cc3cccnc3)CC2)cc1,1.0
CC(C)c1ccc(C(O)c2cnc(C(C)C)n2C)cc1 (stereo unspecified),1.6
Cc1cc2cc(CCNC(=O)c3c(-c4ccccc4Cl)noc3C)c(=O)[nH]c2cc1C,i
O=C(NCCOc1ccccc1)c1cncc(Br)c1,i
O=c1c(N2CCOCC2)nsn1Cc1ccccc1,i
CC(C)Sc1nnc(Nc2ccccc2)s1,i
Cc1ccc(CN/C=C/C(=O)c2ccc(Br)cc2)cc1,i
Cc1ccccc1C(=O)NNC(=O)C(=O)Nc1cccc(Cl)c1C,i
CCOC(=O)C1(C)NC(c2ccccc2F)C2C(=O)N(c3cccc(C(C)=O)c3)C(=O)C21 (stereo unspecified),0.1
CCN(CCNC(=O)C1CCN(c2nnc(-n3cccc3)s2)CC1)c1ccccc1,0.4
O=C(Cn1cnc([N+](=O)[O-])n1)NCc1ccccc1,i
CCOCc1nnc(NC(C)=O)s1,i
COCC(C)NS(=O)(=O)c1ccc(NC(=O)C(Cc2ccccc2)NC(N)=O)cc1 (stereo unspecified),0.1
O=C(NC1CCCCC1)N1CCC(n2c(=O)[nH]c3ccccc32)CC1,0.1
CCOc1ccc(-c2nnc3ccc(SCc4ccc(C(=O)OC)o4)nn23)cc1,1.4
C=CCN1C(=O)CSc2ccc(C(=O)N3CCC4(CC3)OCCO4)cc21,0.1
CCOC(=O)CCCCC(=O)c1[nH]c(=O)[nH]c1CN1CCOCC1,0.9
Cc1cc(NC(=O)CSc2nnc(Cn3c(=O)sc4ccccc43)n2-c2ccccc2C)no1,0.3
O=C(NCCCN1CCOCC1)c1cc(-c2ccc(F)cc2)on1,i
Cc1cc(C)cc(-n2ccnc2SCC(=O)Nc2ccc3c(c2)OCCO3)c1,i
CCc1ccc(C(=O)c2ccccc2C(=O)O)s1,i
CCn1c(NC(=O)c2ccc(COc3ccc(C)cc3[N+](=O)[O-])o2)nc2ccccc21,3.0
CCOC(=O)N1CCN(C(=O)c2cccn3c(=O)c4cc(Cl)ccc4nc23)CC1,i
CCN(CC)CP(=O)(c1ccccc1)c1ccccc1,i
Cc1ccc(CNC(=O)C23CN(Cc4ccccc4)CC2C(c2ccc([N+](=O)[O-])cc2)=NO3)o1 (stereo unspecified),0.2
O=C1OCCC1Sc1nc2cc(Cl)ccc2n1Cc1ccccc1 (stereo unspecified),0.8
Cn1c(SC/C=C/c2ccccc2)nnc1-c1ccco1,i
O=S(=O)(Nc1cccnc1)c1cccc(C(F)(F)F)c1,0.4
CCCOc1ccc(-c2nnc(-c3ccncc3)o2)cc1,i
CCOC(=O)c1c(NC(=O)/C=C/c2ccco2)sc(C)c1C,0.6
COc1ccccc1NC(=O)C1CCCN(S(=O)(=O)c2cnc[nH]2)C1 (stereo unspecified),1.4
CCCCn1c(SCC(=O)OC)nc2c1c(=O)n(C)c(=O)n2C,1.2
Cc1cc(Cl)ccc1Oc1ncc(-c2ccc(Cl)cc2)cn1,i
Cc1ccc(/C=c2\sc3n(c2=O)CN(c2ccc(Br)cc2)CN=3)o1,4.5
